# Vaccinia pol inh: vaccinia E9 polymerase processive synthesis inhibition. in vitro processive DNA synthesis, absorbance read-out; hits give low values; some inactives read as strong as hits. normalized absorbance, % (concentration not given with the values). 46,000 tested, 0.94% active. AID 493162;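 active means replicate mean up to 90% and picked by the depositor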;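 further: 100% = median of the test wells of a plate; 100 nL library stock went into each well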
# The depositor's hits bear a star. Only part of the results is shown (hit frequency here may not be typical).
# Preview, four compounds:
SMILES,Vaccinia pol inh
Cc1ccc(NC(=O)CSc2nnc(N3C(=O)c4ccccc4C3=O)s2)c(C)c1,99.0
Cc1cc(C(F)(F)F)c2c(-c3ccccc3)nn(-c3ccccc3)c2n1,100.5
N#C/C=C(\Nc1ccc(Br)cc1)c1ccccc1,100.9
Cc1nc2sccn2c(=O)c1S(=O)(=O)Nc1ccc(N2CCC(C)CC2)cc1,111.2

# This part in full (from the top)
SMILES,Vaccinia pol inh
Cc1ccc(NC(=O)CSc2nnc(N3C(=O)c4ccccc4C3=O)s2)c(C)c1,99.0
Cc1cc(C(F)(F)F)c2c(-c3ccccc3)nn(-c3ccccc3)c2n1,100.5
N#C/C=C(\Nc1ccc(Br)cc1)c1ccccc1,100.9
Cc1nc2sccn2c(=O)c1S(=O)(=O)Nc1ccc(N2CCC(C)CC2)cc1,111.2
CC1CCN(C(=O)c2cc(Cl)ccc2Cl)CC1,95.5
COc1ccc(CCNC(=O)c2ccccc2N)cc1,91.6
Cc1ccc2oc(=O)cc(CN3CCOCC3)c2c1,99.2
COC(=O)c1ccc2c(c1)NC(=S)c1ccccc1S2,101.2
CC1CCC(Nc2c(-c3cccc(Br)c3)nc3c(C#N)c[nH]n23)CC1 (stereo not drawn),98.1
COc1ccc(CCNC(=O)CCn2c(=O)sc3ccccc32)cc1OC,100.9
CCCCN(CC)Cc1ccc(CNC(=O)Nc2ccccc2)o1,95.2
CN(C(=O)COC(=O)c1ccc(Cl)c(N)c1)c1ccccc1,97.4
CCCCNC1N=C(c2ccccc2)c2ccccc2N(C)C1=O (stereo not drawn),107.2
CCCc1ccc(CC2(CC(=O)OCC)C(=O)c3ccccc3C2=O)cc1,96.8
CCOC(=O)c1ccc(NC(=O)CSc2nccn2-c2ccccc2)cc1,101.1
CCCNS(=O)(=O)c1ccc2c(c1)OCC(=O)N2,99.3
CC(C)Cc1cc(C(=O)NC2CCCCC2)no1,97.8
C=CCn1c(-c2ccccc2)nn(CCC#N)c1=S,100.3
Clc1ccc(-c2cc3c(nn2)Nc2ccccc2N3)cc1,99.8
CN(C)c1ccc(C=Nc2cc(Br)c3c(c2)OCCO3)cc1,99.7
O=C(NCc1ccccc1)C1CCC1,100.2
NNc1nc(-c2ccccc2)c2cc(Cl)ccc2n1,100.0
CC1N=C(c2ccccc2)c2cc(Br)ccc2NC1=O (stereo not drawn),97.2
CC(C)c1ccc(/C=C/C(=O)NC(=S)Nc2ccc(C(=O)O)cc2)cc1,100.8
CCOc1ccc2nc3c(=O)[nH]c(=O)[nH]c3nc2c1,100.3

# (continued)
SMILES,Vaccinia pol inh
Cc1ccc(NC(=O)c2cc3cc(OC(F)(F)F)ccc3[nH]2)cc1,100.3
NC(CSCc1ccccc1Cl)C(=O)O (stereo not drawn),99.0
Cc1cccc(CSCc2nnc(NC(=O)/C=C/c3ccccc3)s2)c1,99.6
CC(C)C(=O)Nc1ccc2oc(=O)ccc2c1,97.4
N#C/C(C(=O)Nc1cc(C(F)(F)F)ccc1Cl)=C1\CCCN1,104.0
Cc1nnsc1-c1n[nH]c(=S)n1C1CC1,93.0
Cc1cc(C)cc(NC(=O)NCc2csc(-c3cccs3)n2)c1,99.5
O=C(NCCn1ccc2ccccc21)c1c(F)cccc1F,99.8
CC(C(=O)Nc1ccc2c(c1)OCCO2)n1nnc(-c2ccccc2)n1 (stereo not drawn),99.9
O=C(O)CCOc1ccccc1,101.5
CCN(CC)C(=O)COc1cc(=O)n(CC)c2ccccc12,101.5
COC(=O)C1(C#N)C(c2ccc(C)cc2C)C(C(=O)c2ccccc2)N2c3ccccc3C=CC21 (stereo not drawn),101.6
Cc1c(C(=O)NCCC(C)C)oc2ccc(S(=O)(=O)N3CCC4(CC3)OCCO4)cc12,96.0
CCC(=O)c1cn(CC(=O)NC2CCCCC2)c2ccccc12,108.7
Cc1ccc(N=C2C(=O)Nc3ccccc32)c(C)c1,99.8
NC(=O)c1nnc2cc(-c3ccccc3)nn2c1N,107.6
Cn1c(NN)nc2ccccc21,99.3
CC1CCc2c(C(=O)O)csc2C1 (stereo not drawn),97.8
CCOC(=O)c1c(NC(=O)CC2CCCC2)sc(C)c1C,100.7
CC(C)Oc1ccc2c(C(F)(F)F)cc(=O)oc2c1,100.1
COc1ccccc1C(=O)N(Cc1cccs1)C1CCS(=O)(=O)C1 (stereo not drawn),104.8
C=CCN1C(=O)C2(C(C#N)=C(N)Oc3c2c(=O)oc2ccccc32)c2ccccc21 (stereo not drawn),100.7
O=C(Oc1cccc2cccnc12)N1c2ccccc2Sc2ccccc21,100.4
FC(F)(F)c1ccc(Cl)c(NC2=NCCC2)c1,101.5
N#Cc1c(C(F)(F)F)cc(-c2ccccc2)[nH]c1=S,99.9

# Continued:
SMILES,Vaccinia pol inh
COc1ccc(N2Cc3cccc(C(=O)Nc4cccc(OC)c4)c3C2=O)cc1,100.9
CCS(=O)(=O)N1CCN(CC2CC=CCC2)CC1 (stereo not drawn),100.0
Cn1c(CO)nc2cc(N=Cc3ccccc3O)ccc21,95.2
CN1c2ccccc2C(=O)/C(=C\Nc2cc(C(F)(F)F)cc(C(F)(F)F)c2)S1(=O)=O,84.6
Cc1ccc2c(C)nc(N/C(N)=N/S(=O)(=O)c3ccccc3)nc2c1,105.7
COC(=O)CNC(c1ccccc1)c1cc(Br)ccc1NC(=O)CCN1CCOCC1 (stereo not drawn),100.1
Cc1nc(-c2ccccc2)nc(OC(=O)N(C)C)c1Oc1cccc(C(F)(F)F)c1,99.4
CCOC(=O)c1cc(-c2cccs2)nn1-c1ccc(C)cc1C,89.7
CSc1scc2c1-c1nn(C(=O)c3cccc(C(F)(F)F)c3)cc1CC2,94.2
O=C1Nc2ncccc2OC1c1ccccc1 (stereo not drawn),96.7
O=C(Nc1ccc(N2CCCCC2)cc1)Nc1cccc(Cl)c1Cl,112.4
O=C(O)c1cc(Cl)c(Cl)cc1C(=O)Nc1ccc(Oc2ccccc2)cc1,99.9
Cc1cc(=O)oc2cc(OC(=O)c3cc4ccccc4o3)ccc12,99.9
Cc1cc(C)cc(NC(=O)Nc2ccc(N(C)C)cc2)c1,97.0
CCc1nc(SC)c(C#N)c2c1CCCC2,99.5
COc1cccc(NC(=O)c2cnccc2C(F)(F)F)c1,96.7
CN1c2ccccc2-c2nc3ccccc3n2C1c1ccccc1 (stereo not drawn),100.9
CC(C)CC(=O)NCc1ccc2[nH]c3c(c2c1)CCCC3,99.4
Cc1ccc(-c2cn3c(n2)CCC3)cc1,102.5
Cc1cc(NC(=O)c2ccc(COc3ccc(Cl)c(C)c3)o2)no1,100.2
CC1(C)CC(N(Cc2cccs2)C(=O)c2ccco2)CCO1 (stereo not drawn),91.8
CCOc1ccc2[nH]c(=O)c(C(c3nnnn3CCOC)N3CCc4ccccc43)cc2c1 (stereo not drawn),98.6
CCc1cc2c(NCC3CCCO3)nc(C)nc2s1 (stereo not drawn),102.5
Cc1ccc(/C=C/C(=O)Nc2sc3c(c2C#N)CCCC3)cc1,100.0
C=CCNC(=O)c1ccc2c(c1)C1C3CCC(C3)C1C(c1ccccc1)N2 (stereo not drawn),99.3

# As a short view, part of the list above:
SMILES,Vaccinia pol inh
O=C1Nc2ncccc2OC1c1ccccc1 (stereo not drawn),96.7
O=C(Nc1ccc(N2CCCCC2)cc1)Nc1cccc(Cl)c1Cl,112.4
O=C(O)c1cc(Cl)c(Cl)cc1C(=O)Nc1ccc(Oc2ccccc2)cc1,99.9
Cc1cc(=O)oc2cc(OC(=O)c3cc4ccccc4o3)ccc12,99.9
Cc1cc(C)cc(NC(=O)Nc2ccc(N(C)C)cc2)c1,97.0
CCc1nc(SC)c(C#N)c2c1CCCC2,99.5
COc1cccc(NC(=O)c2cnccc2C(F)(F)F)c1,96.7
CN1c2ccccc2-c2nc3ccccc3n2C1c1ccccc1 (stereo not drawn),100.9
CC(C)CC(=O)NCc1ccc2[nH]c3c(c2c1)CCCC3,99.4
Cc1ccc(-c2cn3c(n2)CCC3)cc1,102.5
Cc1cc(NC(=O)c2ccc(COc3ccc(Cl)c(C)c3)o2)no1,100.2
CC1(C)CC(N(Cc2cccs2)C(=O)c2ccco2)CCO1 (stereo not drawn),91.8

# (further entries)
SMILES,Vaccinia pol inh
COc1cc(N=CC2=C(O)c3ccccc3C2=O)cc(OC)c1,100.2
C=CCc1cccc(C=NC(Cc2cnc[nH]2)C(=O)O)c1O (stereo not drawn),100.7
C1CNCCN1,91.2
COc1ccc(CSC2=NCN(C3CC(C)CC(C)(C)C3)CN2)cc1 (stereo not drawn),81.4
O=C1c2ccccc2C(=O)C1C1=Nc2ccccc2NC(c2ccccc2)C1 (stereo not drawn),100.1
CC1CCN(C(=O)COC(=O)c2ccccc2C(=O)c2ccccc2)CC1,95.2
CC(C)NC(=S)N1CCN(c2ccc(N3CCOCC3)nn2)CC1,101.1
O=P1(Nc2ccc(Br)cc2)CC=CC1,99.0
Cc1cccc(Nc2nc3ccccc3nc2-n2nc(C)cc2C)c1,99.9
Cc1ccc(C=Nc2ccccc2Br)o1,88.6
Cc1ccc(/C=C2/Sc3ccc(C(=O)NCCN4CCOCC4)cc3NC2=O)cc1,94.5
CSc1nnc(C(C)(C)C)c(=O)n1/N=C/c1c(O)ccc2ccccc12,100.3
COc1ccccc1C(=O)N/C(=C\c1ccccc1)C(=O)O,99.9
CCN(c1cccc(C)c1)S(=O)(=O)c1ccc2[nH]cc(C(=O)NCCc3ccccc3)c(=O)c2c1,101.8
COc1ccc(C(=O)Oc2c(C)occc2=O)cc1OC,96.3
CCN(CC)CCN1C(=O)c2ccccc2NC1c1ccc(Br)cc1 (stereo not drawn),100.0
COc1ccc2c(c1)[C@@]1(C)CCC[C@](C)(CO)C1CC2 (stereo partly drawn),100.2
O=C(NCC1CCCO1)C1c2ccccc2C(=O)N1C1CCCCCC1 (stereo not drawn),99.2
O=C(Nc1ccc(Cl)c(Cl)c1)N1CCC(O)CC1,111.6
CCNc1nc(NCC)n2c(SCC(=O)N(c3ccccc3)c3ccccc3)nnc2n1,100.9
N#Cc1nc(-c2ccccc2F)oc1NC1CCCCC1,102.2
c1ccc(-c2ccc(C3NN=C4C5CCN(CC5)C43)cc2)cc1 (stereo not drawn),93.5
NC(=O)c1cccc(N=Cc2ccc3ccccc3c2)c1,99.5
O=c1ccc(-c2ccncc2)n[nH]1,119.3
CCOC(=S)SCc1cn2ccccc2n1,95.6

# Later entries.
SMILES,Vaccinia pol inh
N#CC(C(=O)c1cccc(C(F)(F)F)c1)=C1SCCCCS1,109.5
NC(=O)c1ccsc1NC(=O)c1ccc2ncsc2c1,97.3
O=C(O)C(Cc1ccc(O)cc1)N=Cc1cccc2ccccc12 (stereo not drawn),100.8
O=c1[nH]c2ccccc2c(=O)n1CCSc1ccccc1,116.6
COc1ccc(S(=O)(=O)NCc2ccc(C(=O)NC3CCCCC3C)cc2)cc1 (stereo not drawn),90.4
Cc1ccc(-c2csc(NC(=O)Nc3ccccc3)n2)cc1,100.0
Cc1ccc(S(=O)(=O)N2CCCC2C(=O)Nc2ccc(C)cc2C)cc1 (stereo not drawn),99.0
COC(=O)c1ccc(C2OCC(C)(C)CO2)cc1,100.5
Cc1cc(OCc2c(C)c(C)c(C)c(C)c2C)c2cc(Cl)ccc2n1,99.4
CCc1ccc(-c2nc3c(C#N)c[nH]n3c2NC2CCCCC2)cc1,102.0
O=c1c(C=Nc2ccccc2)c(O)c2c(n1-c1ccccc1)CCCC2,99.7
C=CCN1C(=O)/C(=C/c2c(N3CCCCC3)nc3ccccn3c2=O)SC1=S,99.8
O=S(=O)(c1ccsc1)c1ccsc1,98.3
O=C(CC1(O)C(=O)Nc2ccccc21)CC1(O)C(=O)Nc2ccccc21 (stereo not drawn),99.6
CCC(Sc1nnc2c3ccccc3n(CC)c2n1)C(=O)NC(C)c1ccccc1 (stereo not drawn),101.8
O=C(O)CCC(=O)Nc1nccs1,96.7
O=c1oc(-c2cccnc2)nc2sc3c(c12)CCCCC3,100.1
COc1ccccc1CC(=O)Nc1nncs1,87.9
CCc1nnc(SCC(=O)N(CC)c2ccccc2)c2cc3occc3n12,101.7
CN(C)c1ccsc1C(=O)NN,97.4
N#CCC(=O)Nc1ccc(C(=O)O)cc1,106.9
COc1ccc(CC(=O)N2CCc3ccccc3C2)cc1,100.4
COc1ccccc1NC(=S)NC(c1ccccc1)c1ccccc1,93.1
C=C1CC[C@H](O)C/C1=C/C=C1\CCC[C@]2(C)[C@@H]([C@H](C)CCCC(C)(C)O)CC[C@@H]12,99.9
COc1cccc2c1OC1(CCCCC1)N1N=C(c3ccco3)CC21 (stereo not drawn),103.9

# Remaining list, next part.
SMILES,Vaccinia pol inh
O=C(N/C=C/n1cnc2cc(C(F)(F)F)ccc21)c1ccco1,107.1
O=C(NCc1ccco1)c1cc(F)cc2c1OCOC2,101.2
Oc1c(Cl)cc(Cl)cc1C=Nc1ccc2n[nH]nc2c1,102.5
COc1ccc(C(=O)Nn2cnnc2)cc1,106.4
CC(=O)N1CCc2ccccc2C1CN=CC1=C(O)CC(c2ccco2)CC1=O (stereo not drawn),99.8
CC(=O)Nc1ccc(NC(=O)C(C)OC(=O)c2c(F)cccc2F)cc1 (stereo not drawn),82.8
NC(=O)CCNCc1ccccc1,100.3
Cc1sc(NC(=O)CN2CCc3ccccc32)c(C#N)c1C,103.0
O=S(=O)(c1ccccc1)N1CC=C(c2ccccc2)CC1,115.1
COc1ccc(N(C)C(=O)C2COc3ccccc3O2)cc1 (stereo not drawn),100.3
O=S(=O)(Cc1ccc(C(F)(F)F)cc1)c1c[nH]c2ccccc12,96.7
Cc1ccc(S(=O)(=O)N2CC(=O)CCc3ccccc32)cc1,99.5
Cc1cccc(NC(=O)c2cc3c(=O)n4ccccc4nc3s2)c1,95.1
O=C(Nc1nccs1)C1CC2CCCC(C1)C2=O (stereo not drawn),95.4
CC(C)Oc1ccc(C(=O)NC2CCS(=O)(=O)C2)cc1 (stereo not drawn),110.8
C=CCn1c(SCc2nnc(SCC(=O)c3ccc(Cl)cc3)o2)nnc1-c1ccccc1,108.0
COc1ccccc1NC(=O)N1C(C(=O)NCc2ccc(F)cc2)CSC1c1ccccc1C (stereo not drawn),101.1
O=C(Nc1ccccc1)OC1C2CCCC1C(N1CCCCC1)CC2 (stereo not drawn),98.8

# 4 records picked at random from those above:
SMILES,Vaccinia pol inh
CC(=O)N1CCc2ccccc2C1CN=CC1=C(O)CC(c2ccco2)CC1=O (stereo not drawn),99.8
NC(=O)CCNCc1ccccc1,100.3
Cc1cccc(NC(=O)c2cc3c(=O)n4ccccc4nc3s2)c1,95.1
O=C(NCc1ccco1)c1cc(F)cc2c1OCOC2,101.2
